# RE007 growth inh: less growth of the S. pombe RE007 Vpr strain; AID 651644; Potency, µM (series often up to 92.2 µM), without a hit: at the top dose activity change, negative = less growth; S. pombe RE007 Vpr strain, BacTiter-Glo ATP luminescence, 24 h; control for the full effect not named in the record; actives 0.21% (n = 360,000); active = well fitted falling curve with a large enough effect; inconclusive = small, poorly fitted or top-dose-only effect; inactive = no such curve, though single readings can be large or run the other way;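 also: % is scaled to controls: 0 for no effect and ±100 for the full control effect; nearly all actives have a fitted effect of over 50% in size; the assay follows cell death caused by Vpr and the record does not say whether a fall means rescue or toxicity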
#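 Fission yeast RE007 carrying one integrated HIV-1 vpr copy, seeded at OD 0.01 in PMG+AL medium with 23 nL pinned compound. Grown 24 h at 30 degrees; viability read by BacTiter-Glo luminescence after 5 min.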
# 2A StopGo: lowers the luciferase signal of an FMDV 2A StopGo reporter; human cells with a luciferase reporter of 2A StopGo recoding; control for the full effect not named in the record; Potency, µM (highest dose often 57.9 µM), without a hit: top-dose signal change, negative = less light; actives 1.2% (n = 410,000); active = well fitted falling curve with a large enough effect; inconclusive = small, poorly fitted or top-dose-only effect; inactive = no such curve, though single readings can be large or run the other way; tested in HEK293T cells; also: % is scaled to controls: 0 for no effect and ±100 for the full control effect; nearly all actives have a fitted effect of over 45% in size; luciferase light after 4 h
# SARS PLP yeast: blocks SARS-CoV papain-like protease in a yeast assay; S. cerevisiae expressing SARS-CoV PLpro, growth rescue; control for the full effect not named in the record; Potency, µM (top dose mostly 32.9 µM), inactives show at the top dose activity, positive = growth rescue; actives 0.19% (n = 330,000); AID 485353; active means well fitted rising curve with a large enough effect; inconclusive means small, poorly fitted or top-dose-only effect; inactive means no such curve, though single readings can be large or run the other way; also: 0% is about no effect; nearly all actives have a fitted effect of over 55% in size; growth read by luminescence after 48 h
# An asterisk follows results filed as active; u = inconclusive; [ ] = another dose, or the depositor's remark. Potency is read from the fitted curve at half-maximal effect. Only part of the results is shown. The share of hits here may be higher or lower than overall.
# Screens in order: RE007 growth inh, 2A StopGo, SARS PLP yeast
O=C(Cn1c(=O)n(-c2ccccc2)c(=O)c2sccc21)NCc1ccccc1
  0%, 8%, -3%
Cc1ccc(OCc2n[nH]c(=S)n2-c2ccccc2)cc1
  -5%, -4%, 12%
N=C1/C(=C\c2ccc(SCc3ccccc3)o2)C(=O)N=C2SC=NN12
  -8%, 3%, -4%
OCCNCCCOc1cc(Cl)ccc1Cl
  -8%, -16%, -2%
Cc1ccc(Nc2nnc(SCC(=O)c3c(N)n(C4CC4)c(=O)[nH]c3=O)s2)cc1C
  4%, 2%, 2%
CC(C)NC(=O)N(C)C[C@H]1Oc2ccc(NS(=O)(=O)c3ccccc3)cc2C(=O)N([C@H](C)CO)C[C@H]1C
  13%, -3%, 2%
CC1(C)CC2CC(C)(CN2S(=O)(=O)c2ccc(F)cc2F)C1 (stereo not drawn)
  10%, 0%, -4%
N#CCC(=O)Nc1ccc(C(=O)Nc2ccc3c(c2)OCO3)cc1
  -5%, 28%, 2%
COC(=O)C1=C(c2ccc(C(C)=O)cc2)C[C@@H]2CC[C@H]1N2C(=O)NCCNC(C)=O
  4%, 31%[activator], 1%
COCCN(C(=O)CSc1nnc(-c2cccc(F)c2)n1N)c1c(N)n(Cc2ccccc2)c(=O)[nH]c1=O
  -3%, -14%, 15%
C=CC[C@@H](CC(=O)N(CCO)Cc1ccccc1)C(=O)NC[C@@H](OC(=O)[C@@H](CC=C)CC(=O)OC(C)(C)C)c1ccccc1
  -1%, u, -4%
CCCCN1CCNC[C@@H]1Cc1ccccc1
  -2%, -1%, 0%
N#Cc1ccccc1OCC(=O)Nc1nnc(C2CC2)s1
  -5%, 18%, 4%
N/C(=N\NC(=O)c1ccccc1Cl)c1cc2ccccc2oc1=O
  9%, 6%, 0%
CN(C)NC(=O)C(NC(=O)c1ccc(N)cc1)C12CC3CC(CC(C3)C1)C2 (stereo not drawn)
  -5%, 2%, 0%
CSc1nc(N)nc2c1ncn2CC(=O)NCc1ccc2c(c1)OCO2
  8%, -2%, 3%
CCCN1CCN(C(=O)c2nn(-c3ccc(OC)cc3)c(=O)c3c2c2ccccc2n3C)CC1
  17%, -20%, -4%
COc1ccc(NC(=O)CCc2nc3ccccc3c(=O)[nH]2)cc1S(=O)(=O)N1CCCCC1
  4%, u, 1%
COc1cc2c(cc1OC)C(=O)N1[C@H]3c4ccccc4OC[C@@H]3[C@H](c3ccccc3)[C@]1(C)C(=O)N2
  10%, u, 1%
O=C(Nc1ccncc1)C1CCN(S(=O)(=O)c2ccc(Cl)c(C(F)(F)F)c2)CC1
  -8%, -28%, 1%
CCOC(=O)c1cc(-c2cccnc2)nn1-c1ccccc1C
  -14%, -12%, -1%
O=C(Nc1ccc(Cl)cc1)c1ccc(OC2CSC2)cc1
  7%, 68%[activator], -2%
CCOCCCn1c(SC(C)C(=O)NCC2CCCO2)nc2sc(C)c(C)c2c1=O (stereo not drawn)
  3%, -13%, 3%
COc1cc(-n2c(=O)c3ccccc3n(CC(=O)c3ccc(Br)cc3)c2=O)cc(OC)c1OC
  5%, u, 3%
CCCOc1ccc(-c2cc3onc(-c4ccccc4)c3c(=O)n2C)cc1
  7%, -65%, -7%
COc1ccc(N(S(=O)(=O)c2ccccc2)S(=O)(=O)c2ccccc2)c(N)c1
  11%, -30%, -4%
CCCNC(=O)c1n[nH]c2c1CC(C(C)(C)CC)CC2 (stereo not drawn)
  -8%, 5%, 6%
COc1cc(C(=O)OCC(=O)N2CCC(C)CC2)cc2c1OCCO2
  7%, -3%, 6%
COc1cccc(/C=C/C(=O)Nc2cccc(C(C)=O)c2)c1OC
  18%, 50%[activator], -7%
COc1ccc(NC(=O)N(C)C[C@H]2Oc3ccc(NC(=O)C4CCCCC4)cc3C(=O)N([C@H](C)CO)C[C@@H]2C)cc1
  20%, -9%, -1%

# By substructure, those above containing an aryl thioether with sulfur outside any ring (5)
# Screens in order: RE007 growth inh, 2A StopGo, SARS PLP yeast
N=C1/C(=C\c2ccc(SCc3ccccc3)o2)C(=O)N=C2SC=NN12
  -8%, 3%, -4%
Cc1ccc(Nc2nnc(SCC(=O)c3c(N)n(C4CC4)c(=O)[nH]c3=O)s2)cc1C
  4%, 2%, 2%
COCCN(C(=O)CSc1nnc(-c2cccc(F)c2)n1N)c1c(N)n(Cc2ccccc2)c(=O)[nH]c1=O
  -3%, -14%, 15%
CSc1nc(N)nc2c1ncn2CC(=O)NCc1ccc2c(c1)OCO2
  8%, -2%, 3%
CCOCCCn1c(SC(C)C(=O)NCC2CCCO2)nc2sc(C)c(C)c2c1=O (stereo not drawn)
  3%, -13%, 3%

# Later entries:
# Screens in order: RE007 growth inh, 2A StopGo, SARS PLP yeast
Cc1cc[n+](CC(=O)c2ccc(NC(=O)c3ccccc3)cc2)cc1
  0%, -19%, -3%
COCCN(CCOC)S(=O)(=O)c1ccc(C(=O)Nc2ccc(S(=O)(=O)Nc3nccc(C)n3)cc2)cc1
  -1%, -2%, 2%
CC(NC(=O)COC(=O)CCN1C(=O)C2CC=CCC2C1=O)c1ccc(Br)cc1 (stereo not drawn)
  -11%, -16%, -2%
CCC1(C)NC(=O)N(CC(=O)Nc2cc(C)on2)C1=O (stereo not drawn)
  15%, -11%, -4%
O=C(O)/C=C/C(=O)Nc1ccc(S(=O)(=O)N2CCCC2)cc1
  -3%, -2%, 2%
CN(CC(=O)Nc1ccc(F)cc1)C(=O)Cn1c(=O)oc2ccccc21
  2%, -8%, -18%
CC1c2nc3ccccc3n2C(CC(=O)NC2CC2)C(=O)N1Cc1ccccc1 (stereo not drawn)
  9%, -21%, 2%
O=C(Nc1ccc(F)c(F)c1)C1CCCCC1
  -13%, -9%, -2%
CCNc1ccc(S(=O)(=O)NCCN(C)C)cc1[N+](=O)[O-]
  3%, -17%, 6%
O=C(COC(=O)CCNS(=O)(=O)c1cccs1)Nc1ccccc1
  -6%, 5%, 0%
COc1ccc([C@H](OC)[C@@]2(Cc3ccc(O)cc3)N=C(N)N(C)C2=O)cc1
  6%, -23%, 3%
CC(C(=O)OCC(=O)N1CCN(c2ccccc2)CC1)N1C(=O)c2ccccc2C1=O (stereo not drawn)
  0%, -23%, -4%
CC(C)C(NC(=O)c1c(F)cccc1F)C(=O)N1CCN(S(=O)(=O)c2ccc(F)cc2)CC1 (stereo not drawn)
  0%, -13%, -9%
O=C(Cn1c(-c2ccccn2)nc2ccccc21)N/N=C/c1ccccn1
  -8%, -21%, -1%
CC(Sc1ncnc2sc(-c3ccccc3)cc12)C(=O)N1CCNC1=O (stereo not drawn)
  11%, -24%, -11%
O=C(O)c1cc(S(=O)(=O)N2CCOCC2)c[nH]1
  -2%, -3%, -6%
COCCN(C(=O)CSCc1ccc(C)cc1)c1c(N)n(CC(C)C)c(=O)[nH]c1=O
  -3%, -13%, 3%
COc1ccc(CN2C(=O)C(C)Nc3ncnc(N4CCOCC4)c32)cc1 (stereo not drawn)
  -5%, -24%, 3%
COc1cc(OC)cc(-c2c(C#Cc3ccsc3)c3cc(-c4cccc5[nH]cc(C=O)c45)ccc3n2C)c1
  -6%, -2%, 14%
O=C(Nc1cccc(S(=O)(=O)N2CCCCC2)c1)c1cncc(Br)c1
  7%, u, -6%
CCOc1ccc(NC(=O)COC(=O)c2ccc3c(c2)OCCO3)cc1
  12%, -6%, 0%
O=C(CSc1nnc(Cc2ccccc2)o1)Nc1ccc(N2CCOCC2)cc1
  -10%, -5%, 6%
O=C(COc1ccccc1)NNc1nc2c(F)cc(F)cc2s1
  8%, 4%, 0%
COc1ccc(C(=O)NCc2ccc3[nH]c(C)cc3c2)cc1OC
  3%, 1%, 0%
Nc1ccc(Cl)c(S(=O)(=O)Nc2cccc(Cl)c2)c1
  3%, 87%[activator], -1%
CCOc1cccc2sc(N(CCCN(C)C)C(=O)Cc3ccccc3)nc12
  2%, 5%, -2%
CC(=O)C[C@@H](O)CC(=O)[C@@H]1OC(=O)CCCCCCCCc2ccccc21
  3%, 11%, 12%
Cc1ccc(S(=O)(=O)N2CCN(C(=O)CSc3nnnn3C)CC2)c(C)c1
  -9%, -9%, -1%
C=CC[C@@H](CC(=O)N[C@@H](CO)Cc1ccccc1)C(=O)NC[C@@H](OC(=O)[C@@H](CC=C)Cc1ccc(F)cc1)c1ccccc1
  9%, -5%, -7%
O=C(CSc1nnc(CNC(=O)c2ccco2)o1)Nc1nc2ccccc2s1
  -4%, -1%, -1%
COc1cc(NC(=O)CN2CCN(S(=O)(=O)/C=C/c3ccccc3)CC2)cc(OC)c1OC
  2%, -26%, -9%
COc1ccc(NC(=O)c2cn(CCC#N)nc2-c2cc3ccccc3o2)cc1
  2%, -16%, 0%
CN(C1CCCCC1)S(=O)(=O)c1cccc(C(=O)Nc2ccccn2)c1
  2%, 10%, -11%
CCN1C(=O)[C@@H]2[C@@H](c3ccc(-c4ccc5c(c4)OCO5)c(OC)c3)N3CCCC[C@@]3(C(=O)OC)[C@@H]2C1=O
  2%, -23%, 8%
CC(C)[C@H](NS(=O)(=O)c1ccc(Cl)cc1)C(=O)OCC(=O)c1c(N)n(C)c(=O)n(C)c1=O
  3%, -11%, 0%
CC(OC(=O)Cn1[nH]c(=O)c2ccccc2c1=O)C(=O)Nc1ccc(Cl)cn1 (stereo not drawn)
  4%, -16%, -1%
Cc1cc(NC(=O)COC(=O)/C=C/c2ccc(C)o2)no1
  0%, -11%, -3%
CN(C(=O)CSc1cccc[n+]1[O-])c1ccccc1
  1%, -17%, 1%
COC(=O)CNC(=O)COC(=O)c1cc(SC)ccc1Cl
  5%, -5%, 0%
Cn1cnc(C(=O)N2CCc3ccccc3C2)c1C(=O)N1CCc2ccccc2C1
  -3%, -1%, 7%
COC(=O)C1=CO[C@@H](O)C2C(CO)=CCC12 (stereo partly drawn)
  -4%, u, 1%
COc1ccc(NC(=O)CN(C)C(=O)c2oc3ccccc3c2C)cc1
  0%, 14%, -1%
CCCN1C(=O)C(=O)c2cc(C)ccc21
  0%, 19%, 2%
O=C1C=C(c2cc(Cl)cc(Cl)c2)C[C@@H](c2ccc(F)cc2)C1
  -10%, -19%, 2%
CC[C@]12c3[nH]c4ccc(OC)cc4c3CCN1C(=O)C(CC(=O)NCCCOC)C[C@@H]2C(=O)N1CCN(C(=O)C2CC2)CC1 (stereo partly drawn)
  2%, -15%, -4%
O=C(COC(=O)c1cc2ccccc2cc1O)Nc1ccccc1F
  -2%, 5%, 1%
CCCCN1CCN=C1N(C)C
  -6%, -2%, 1%
COc1cccc(OCC(=O)NCC2CCCO2)c1 (stereo not drawn)
  -3%, 1%, -8%
Cc1nc(SC(C)C(=O)NC2CCCC2)c2ccccc2n1 (stereo not drawn)
  -2%, u, 8%
CC(=O)c1ccc(NC(=O)CN2C(=O)NC3(CCCc4ccccc43)C2=O)cc1 (stereo not drawn)
  21%, -23%, 4%
C#CCOCCOCCOCCNc1nc(N2CCN(C(=O)[C@H](CCCCN)n3cc([C@@H](N)CO)nn3)CC2)nc(N2CCN(C(=O)[C@H](CCCCN)n3cc([C@@H](N)CC(C)C)nn3)CC2)n1
  -8%, 13%, -7%
CC(=O)c1ccc(NC(=O)C(C)N(C)CC(=O)Nc2ccccc2Cl)cc1 (stereo not drawn)
  -2%, -17%, 0%
Cc1ccc(NC(=O)c2ncn(CC(=O)NCc3nc4ccccc4[nH]3)n2)cc1C
  -12%, 18%, 8%
C[C@@]12C(=O)N(c3cccc(Cl)c3)C(=O)N1[C@@H]1c3ccccc3OC[C@@H]1[C@H]2c1ccccc1
  -12%, 0%, -1%
CC(C)C(NC(=O)c1ccccc1)C(=O)NC1CCCc2ccccc21 (stereo not drawn)
  10%, 7%, -4%
O=C1C2CCCCC2C(=O)N1c1ccc(NC2CCN(Cc3ccccc3)CC2)c([N+](=O)[O-])c1 (stereo not drawn)
  -23%, -23%, 0%

# 3 of the compounds above, in CSV form.
structure,RE007 growth inh,2A StopGo,SARS PLP yeast
CCN1C(=O)[C@@H]2[C@@H](c3ccc(-c4ccc5c(c4)OCO5)c(OC)c3)N3CCCC[C@@]3(C(=O)OC)[C@@H]2C1=O,2%,-23%,8%
CCCCN1CCN=C1N(C)C,-6%,-2%,1%
C#CCOCCOCCOCCNc1nc(N2CCN(C(=O)[C@H](CCCCN)n3cc([C@@H](N)CO)nn3)CC2)nc(N2CCN(C(=O)[C@H](CCCCN)n3cc([C@@H](N)CC(C)C)nn3)CC2)n1,-8%,13%,-7%

# Part of the list above, reformatted.
compound: COc1ccc(NC(=O)CCc2nc3ccccc3c(=O)[nH]2)cc1S(=O)(=O)N1CCCCC1
  RE007 growth inh = 4%
  2A StopGo = u
  SARS PLP yeast = 1%
compound: COc1cc2c(cc1OC)C(=O)N1[C@H]3c4ccccc4OC[C@@H]3[C@H](c3ccccc3)[C@]1(C)C(=O)N2
  RE007 growth inh = 10%
  2A StopGo = u
  SARS PLP yeast = 1%
